RecA intein inh = Mtb RecA intein splicing inhibition; P9WHJ3; cell-free RecA intein splicing, fluorescence; inhibition, %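 (about 9 µM by stock and volumes)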; 0.75% of 290,000 active; in the data active = inhibition above about 30%; inconclusive = no clear call, values can overlap the other calls;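 note: 0% = vehicle wells and 100% = reference inhibitor control wells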
Target sequence (P9WHJ3 whole entry, looked up): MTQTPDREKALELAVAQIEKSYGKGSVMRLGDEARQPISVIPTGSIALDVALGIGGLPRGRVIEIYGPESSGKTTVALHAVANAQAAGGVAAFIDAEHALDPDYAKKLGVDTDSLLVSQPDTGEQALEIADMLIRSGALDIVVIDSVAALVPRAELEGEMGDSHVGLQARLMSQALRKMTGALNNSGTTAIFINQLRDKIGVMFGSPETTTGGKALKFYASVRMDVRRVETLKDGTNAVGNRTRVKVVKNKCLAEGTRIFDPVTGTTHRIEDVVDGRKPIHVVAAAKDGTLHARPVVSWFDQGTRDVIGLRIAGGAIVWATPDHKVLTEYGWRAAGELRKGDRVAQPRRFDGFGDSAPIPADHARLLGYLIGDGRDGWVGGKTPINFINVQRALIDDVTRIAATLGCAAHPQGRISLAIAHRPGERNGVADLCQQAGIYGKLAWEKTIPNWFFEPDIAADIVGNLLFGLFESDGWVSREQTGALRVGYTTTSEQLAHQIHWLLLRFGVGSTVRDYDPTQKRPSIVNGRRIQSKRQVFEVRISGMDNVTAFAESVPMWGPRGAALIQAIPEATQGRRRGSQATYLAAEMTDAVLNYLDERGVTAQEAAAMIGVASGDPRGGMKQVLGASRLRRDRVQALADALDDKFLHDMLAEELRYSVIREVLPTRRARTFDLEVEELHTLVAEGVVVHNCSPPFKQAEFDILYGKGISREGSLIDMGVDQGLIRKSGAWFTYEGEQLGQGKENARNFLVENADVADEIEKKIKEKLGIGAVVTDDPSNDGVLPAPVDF
YopH inh = inhibitors of Yersinia enterocolitica YopH tyrosine phosphatase; 0.16% of 140,000 active; fluorescence Ex485/Em525; inhibition, %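 (about 10 µM by stock and volumes)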;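 active = inhibition of 50% or more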;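 note: controls were vehicle for no effect and minimum signal wells for full effect; inactives centre near -20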
Mtb growth = M. tuberculosis H37Rv growth inhibitors, H37Rv strain (AID 1626). M. tuberculosis H37Rv growth inhibition; higher % means a stronger effect. inhibition, % at 10 µM; hits with a dose series show IC50 in µM. 0.95% of 220,000 active;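 active = confirmed in a dose series; inconclusive = inhibition above 80% but not taken into the dose series; inactive = below 80% or under 30% at every dose of the series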;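 note: bacteria incubated seven days before Alamar blue readout; 0% = bacteria only wells and 100% = bacteria with antibiotic wells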
Mtb bLac sens = beta-lactam sensitization of Mtb H37Rv; inhibition, % at 25 µM; AID 434955; M. tuberculosis H37Rv growth with meropenem, percent inhibition; hits of this screen are not shown here; 0.27% of 330,000 active;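 active = about 74% or more and at least 40 points above the plate without the antibiotic, then above 30% in a dose series; inconclusive = first-round hits that could not be retested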;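 note: growth measured after seven days incubation then overnight dye step; 0% = bacteria only wells and 100% = bacteria with antibiotic; twin plates without the antibiotic show which effects depend on it; some results filed as inactive read as strong as hits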
Arbovirus anti = arbovirus infection inhibition; AID 1251; inhibition, % at 10 µM; 0.37% of 200,000 active; arbovirus infection cell-based antiviral screen;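 active = inhibition from about 30%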;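 note: bluetongue infection of BSR cells; cell survival read as ATP light after 72 h; 0% = infected wells without compound and 100% = uninfected wells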
Arbovirus anti repeat = further read-out of Arbovirus anti, marked with its call; inhibition, %; measured here: 10K subset replicate screen; many hits read low in the repeat;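 first of two repeat runs on a subset; 0% = infected and 100% = uninfected wells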
Starred values were filed as active, the others as inactive; ? = inconclusive; . = not tested or not shown. The list is partial; rates above refer to the full screens.

SMILES	RecA intein inh	YopH inh	Mtb growth	Mtb bLac sens	Arbovirus anti	others
CC(C)NC(=O)COc1coc(CN2CCN(Cc3ccccc3)CC2)cc1=O	-1.6	.	.	-8.7	.
COc1ccc(CCn2c(=N)c(C(=O)NC3CCCC3)cc3c(=O)n4cccc(C)c4nc32)cc1	-12.9	.	.	93.7	.
CCSCCOC(=O)C1=C(C)NC(=O)NC1c1cccc(OC)c1OC (stereo not given)	.	-51.6	-6.3%	6.6	3.2	Arbovirus anti repeat=0.2
CCCOC1CCCN(Cc2nc(-c3cnccn3)no2)C1 (stereo not given)	-1.6	.	2.8%	-8.6	2.2
CCOc1ccc(OCC)c(NC(=O)C2CCCN(S(=O)(=O)c3c(C)n[nH]c3C)C2)c1 (stereo not given)	-0.5	-3.8	-2.3%	-4.4	-0.2
CCN(Cc1ccccc1)C(=O)C1CCN(CC2CC=CCC2)CC1 (stereo not given)	-1.9	-6.9	-3.2%	-3.3	-13.0
C(=N\n1cnnc1)/c1nc2ccccc2[nH]1	-0.5	-25.9	1.4%	-3.8	4.4
O=C(NCCc1c[nH]c2ccccc12)C(=O)Nc1ccccc1	1.0	.	4.3%	3.9	-13.5
O=C1NC(=O)C(=Cc2ccc(-c3ccc(S(=O)(=O)N4CCOCC4)cc3)o2)C(=O)N1	-2.1	.	.	0.1	.
COC(C[C@@H]1O[C@@H]1[C@@H](O)[C@H](C)OCc1ccccc1)OC	-1.7	.	-10.2%	.	.
CCNC(=O)n1nccc1C(C)Oc1ccccc1 (stereo not given)	1.4	-12.9	3.3%	9.6	-2.1
COc1ccc(NC(=O)CN2C(=O)COc3ccc(C)cc32)cc1	-1.1	.	.	-10.3	.
COC(=O)[C@H](CCSC)NC(=O)NCCc1ccccc1F	1.2	-22.0	-4.2%	?	3.4
Cc1cc(C)nc(N2CCC(C(=O)NCc3cccc(C(F)(F)F)c3)CC2)n1	-1.0	-27.2	-2.7%	0.8	-3.7
COc1ccc(C2NC(=O)NC(C)=C2[N+](=O)[O-])cc1OC (stereo not given)	-4.8	.	5.0%	-4.7	.
CCOC(=O)NC(=O)COC(=O)CNC(=O)c1ccc(OCC)c(OCC)c1	-1.2	.	4.2%	6.9	3.2
O=C1CC(C(=O)Nc2ccc(F)c(Cl)c2)N=C(N2CCCCC2)N1 (stereo not given)	-0.5	-9.8	-2.6%	5.0	8.3
COc1ccc(OC)c(C2C3=C(CCCC3=O)Nc3c2c(=O)n(C)c(=O)n3C)c1 (stereo not given)	-1.8	-14.8	-3.0%	-2.8	-4.9
O=C(Cc1ccc(Cl)cc1)NCCS(=O)(=O)N1CCN(c2ccccc2F)CC1	-1.8	.	.	-17.3	.
COc1ccccc1NC(=O)CSc1nn2c(=O)c(C)nnc2s1	-1.4	.	.	-12.9	.
FC(F)(F)c1ccc(-c2noc(CN3CCCN(C4CCCCC4)CC3)n2)cc1	3.8	.	2.1%	3.6	7.8
CCOC(=O)/C(C#N)=C/Nc1ccsc1C(=O)OC	-2.1	.	-8.2%	2.0	.
O=C(NC1CCCC1)C(c1cccs1)N(C(=O)c1ccco1)c1ccc2c(c1)OCCO2 (stereo not given)	3.6	-37.0	3.0%	-0.6	-1.9
COc1cc(OC)c2c(=O)c(OC)c(-c3ccc(OC)c(OC)c3)oc2c1	-10.7	.	-15.4%	-7.6	-0.5
Cc1ccc(-c2csc(N(CC3CCCO3)C(=O)c3ccco3)n2)cc1 (stereo not given)	2.4	-16.3	8.2%	72.5	6.3

Some of these compounds in order of molar mass, ascending:
SMILES	RecA intein inh	YopH inh	Mtb growth	Mtb bLac sens	Arbovirus anti	others
CCCOC1CCCN(Cc2nc(-c3cnccn3)no2)C1 (stereo not given)	-1.6	.	2.8%	-8.6	2.2
CCSCCOC(=O)C1=C(C)NC(=O)NC1c1cccc(OC)c1OC (stereo not given)	.	-51.6	-6.3%	6.6	3.2	Arbovirus anti repeat=0.2
O=C(NC1CCCC1)C(c1cccs1)N(C(=O)c1ccco1)c1ccc2c(c1)OCCO2 (stereo not given)	3.6	-37.0	3.0%	-0.6	-1.9

(listing goes on)
SMILES	RecA intein inh	YopH inh	Mtb growth	Mtb bLac sens	Arbovirus anti	others
COc1ccc(C2=NOC(CNC(N)=S)C2)cc1 (stereo not given)	-3.5	.	0.6%	56.8	-3.4
COC(=O)C1=C(NC(=O)c2cccs2)CCS1	.	-43.9	-1.6%	.	1.1
COc1ccc(C2CC(=O)c3cnc(NC(=O)c4ccccc4)nc3C2)cc1OC (stereo not given)	-0.8	-18.5	4.9%	-3.3	4.8	Arbovirus anti repeat=4.7
Cc1c(NC(=O)C2CCN(S(=O)(=O)c3ccccc3)CC2)c(=O)n(-c2ccccc2)n1C	-3.5	-12.2	-2.4%	3.3	2.2	Arbovirus anti repeat=-1.8
CN(C)c1ccc(CNC(=O)CN(C)S(=O)(=O)c2cccc3cccnc23)cc1	-0.9	-9.9	-5.9%	10.0	-1.1
COC(=O)C1=CN(c2ccc(OC)cc2)C=C(C(=O)OC)C1c1cccc(F)c1	-139.9	.	.	-9.7	.
O=C(NCC(c1cccnc1)N1CCOCC1)Nc1ccccc1 (stereo not given)	0.7	-23.1	-6.1%	-11.8	9.9
CC1CN(Cc2nc3c(c(=O)[nH]c(=O)n3C)n2CCN2CCOCC2)CC(C)O1 (stereo not given)	-0.8	-43.2	-5.8%	.	4.6
CCC(C)n1c(C)cc(C(N)=O)c1C (stereo not given)	2.9	.	5.7%	-5.2	7.7
COc1cccc(N2CC(C(=O)Nc3nnc(SCc4ccccn4)s3)CC2=O)c1 (stereo not given)	-1.5	-21.0	-9.7%	0.9	0.1
COc1ccc(Cc2nnc(NS(=O)(=O)c3ccccc3)s2)cc1	-2.7	.	-4.0%	4.9	1.4
COc1ccccc1NC(=O)Nc1nc(CC(=O)N2CCN(c3ccc(F)cc3)CC2)cs1	3.7	.	.	28.8	.
COCCCNC(=O)C(=O)NCCCOC(C)C	-3.8	-33.0	-15.5%	-1.2	3.2
CCOC(=O)N1CCN(C(=O)C2CCN(S(=O)(=O)c3c(C)cc(C)cc3C)CC2)CC1	2.2	-7.8	-7.0%	-7.5	6.7
CC(=O)N(c1ccc(C(F)(F)F)cc1)S(=O)(=O)c1ccc(N2C(=O)CCC2=O)cc1	-0.8	.	.	1.9	.
Cc1ccc(C(=O)NCCOc2cccc(C)c2)cc1	-0.5	.	13.8%	4.0	-0.3
COc1ccc(C(CNC(=O)Cc2cc(OC)c(OC)c(OC)c2)N2CCCC2)cc1 (stereo not given)	.	-44.2	-2.8%	-23.0	.
Cn1c(=O)c(C(=O)CSc2ccccc2)c(N)n(Cc2ccccc2)c1=O	2.7	.	-7.8%	1.7	9.4
CN(C)C=Nc1ccc2nc3c(cc2c1)[nH]c1ccccc13	-31.0	.	.	?	.
CCOC(=O)Nc1c(C)n(C)n(-c2ccccc2)c1=O	1.6	.	-5.1%	0.0	0.6
CCn1c(=O)cc(OCC(=O)N2CCN(Cc3ccc4c(c3)OCO4)CC2)c2ccccc21	-0.8	-28.1	-22.1%	3.0	-17.5
O=c1c2ccccc2nc(-c2ccco2)n1-c1ccc(Br)cc1	0.3	.	-4.7%	-4.9	.
Cc1nnc(SCc2ccc(C(=O)c3ccc(Cl)cc3)o2)n1-c1ccccc1	1.3	-22.0	4.0%	-0.8	-4.0
Cc1cc2cc(C(c3nnnn3Cc3ccco3)N3CCCCC3)c(=O)[nH]c2cc1C (stereo not given)	0.3	-23.8	-3.7%	11.9	-7.3
O=C1/C(=C/c2ccc3c(c2)OCO3)N2CCC1CC2	-1.7	-22.2	-3.3%	1.1	-3.4

Later entries
SMILES	RecA intein inh	YopH inh	Mtb growth	Mtb bLac sens	Arbovirus anti	others
Cc1ccc(-n2ncc(C#N)c2/N=C/N(C)C)cc1	-0.1	6.2	12.5%	1.4	-6.6
CCOC(=O)C1C(C)N=C2SCC(=O)N2C1c1cccc(Br)c1 (stereo not given)	5.1	-20.6	-3.6%	-9.7	3.5	Arbovirus anti repeat=-7.5
O=C(NN1C(=O)c2ccccc2C1=O)c1ccccc1[N+](=O)[O-]	-4.5	.	-5.1%	-0.5	3.7
COc1ccccc1C(=O)NC(=O)COC(=O)c1cnc(C)cn1	1.0	.	.	-7.2	.
CCCCN1C=C(C(=O)OC)C(c2ccccc2Cl)C(C(=O)OC)=C1	-94.6	.	6.8%	-8.6	1.5
O=C(CN1CC(c2ccccc2)CC1=O)Nc1ccc(F)cc1 (stereo not given)	0.3	-4.5	-4.1%	1.4	2.4	Arbovirus anti repeat=1.6
COc1ccc(N2CCN(C(c3cccs3)C(C)NC(=O)C(=O)N3CCCCC3)CC2)cc1 (stereo not given)	-0.5	.	.	-9.3	.
COc1ccc(N2CCN(C(CNC(=O)c3ccco3)c3ccco3)CC2)cc1 (stereo not given)	1.3	.	.	-3.9	.
Cc1nc(CC(C)C)cc(C(=O)N2CCCC(CNS(=O)(=O)c3cccs3)C2)n1 (stereo not given)	.	.	-2.0%	2.0	-2.6
CCCCCCc1nc2ccccc2c(=O)n1NC(=O)c1c(O)c2cccc3c2n(c1=O)CCC3	-1.1	-20.3	.	.	1.3
Cc1ccc(NC(=O)N2CCc3ccccc3C2)c(C)c1	0.1	.	.	-2.8	.
CCCCN(C)C(=O)Cn1nc(-c2ccc(Cl)cc2)ccc1=O	-1.8	.	.	1.9	.
COc1cc(C2C(C(C)=O)=C(O)C(=O)N2CCN2CCOCC2)ccc1O (stereo not given)	-6.8	-11.0	-4.2%	-2.8	6.1
CC(=O)COc1ccccc1OC(=O)c1ccco1	17.7	4.6	-4.1%	-1.4	9.0
COc1ccccc1C(=O)NCc1ccncc1	-0.2	-26.9	-0.6%	2.6	1.5
Cc1ccc2cccc(OCc3ccc(F)cc3)c2n1	0.9	.	.	2.3	.
CCOCc1nnc(NC(=O)C2CCN(C(=O)C3CC(=O)N(c4ccc(C)cc4)C3)CC2)s1 (stereo not given)	-10.1	.	.	-0.3	.
CCNC(=O)CSc1nnc(-c2ccc(OC)cc2)n1CC(C)C	-0.8	-3.7	-3.7%	-4.7	-0.3
O=C(c1cccc(Cl)c1)N1CCN(Cc2c[nH]c3ccccc23)CC1	0.0	.	-5.7%	2.1	11.2
O=C(CCc1nnc(COc2ccccc2)o1)NCc1ccccc1C(F)(F)F	2.4	.	-4.2%	-2.9	8.8
COc1cccc(NC(=O)CNC(=O)c2ccc(F)cc2)c1	1.8	-24.9	-0.8%	-0.4	0.9
CC(C)(C)c1ccc(OCCSc2nc3ccccc3n2CC(=O)O)cc1	-0.3	.	.	-3.2	.
O=C(Cn1cc2c(n1)CCCC2)NCc1cccc(Cl)c1	3.6	10.2	8.8%	8.8	2.2	Arbovirus anti repeat=-1.2
Cc1c(O)c(CN(C)C)cc2c1oc(=O)c1ccccc12	-4.4	.	-9.5%	20.8	.

Molecules shown so far that contain fluorine:
SMILES	RecA intein inh	YopH inh	Mtb growth	Mtb bLac sens	Arbovirus anti	others
COC(=O)[C@H](CCSC)NC(=O)NCCc1ccccc1F	1.2	-22.0	-4.2%	?	3.4
Cc1cc(C)nc(N2CCC(C(=O)NCc3cccc(C(F)(F)F)c3)CC2)n1	-1.0	-27.2	-2.7%	0.8	-3.7
O=C1CC(C(=O)Nc2ccc(F)c(Cl)c2)N=C(N2CCCCC2)N1 (stereo not given)	-0.5	-9.8	-2.6%	5.0	8.3
O=C(Cc1ccc(Cl)cc1)NCCS(=O)(=O)N1CCN(c2ccccc2F)CC1	-1.8	.	.	-17.3	.
FC(F)(F)c1ccc(-c2noc(CN3CCCN(C4CCCCC4)CC3)n2)cc1	3.8	.	2.1%	3.6	7.8
COC(=O)C1=CN(c2ccc(OC)cc2)C=C(C(=O)OC)C1c1cccc(F)c1	-139.9	.	.	-9.7	.
COc1ccccc1NC(=O)Nc1nc(CC(=O)N2CCN(c3ccc(F)cc3)CC2)cs1	3.7	.	.	28.8	.
CC(=O)N(c1ccc(C(F)(F)F)cc1)S(=O)(=O)c1ccc(N2C(=O)CCC2=O)cc1	-0.8	.	.	1.9	.
O=C(CN1CC(c2ccccc2)CC1=O)Nc1ccc(F)cc1 (stereo not given)	0.3	-4.5	-4.1%	1.4	2.4	Arbovirus anti repeat=1.6
Cc1ccc2cccc(OCc3ccc(F)cc3)c2n1	0.9	.	.	2.3	.
O=C(CCc1nnc(COc2ccccc2)o1)NCc1ccccc1C(F)(F)F	2.4	.	-4.2%	-2.9	8.8
COc1cccc(NC(=O)CNC(=O)c2ccc(F)cc2)c1	1.8	-24.9	-0.8%	-0.4	0.9
